Source: PubChem
CBX7 inh = CBX7 inhibition, primary AlphaScreen; O95931; AlphaScreen His6-CBX7 / biotin-H3K27me3 peptide binding; active compounds read low; normalised signal (fraction of DMSO) (test concentration not listed); 1.1% of 66,000 active; AID 1224903; in the data active = normalised signal below about 0.5;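 note: 100 nL library stock added to about 20 µL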
Target sequence (O95931 whole entry, looked up): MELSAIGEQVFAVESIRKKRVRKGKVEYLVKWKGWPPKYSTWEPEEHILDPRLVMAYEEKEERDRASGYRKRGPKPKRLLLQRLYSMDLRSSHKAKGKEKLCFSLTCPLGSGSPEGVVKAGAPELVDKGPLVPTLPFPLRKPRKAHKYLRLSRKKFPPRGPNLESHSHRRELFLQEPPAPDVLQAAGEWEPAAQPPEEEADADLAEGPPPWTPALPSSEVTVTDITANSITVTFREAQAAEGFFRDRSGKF
CBX7 inh z-score = second read-out of CBX7 inh, no call of its own (marks repeat the call); z-score; measured here: z-score of CBX7 signal; some inactives read as strong as hits; reference of the scale not given here;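 same signal on another scale; lower means less binding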
Numbers without * were called inactive. These rows are one share of the data; rates above refer to the full screens.

SMILES	CBX7 inh	CBX7 inh z-score
COc1ccc(CCNC(=O)CNC(=O)Cn2cnc3sc(C)c(C)c3c2=O)cc1OC	1.2	2.2
CCOC(=O)c1c(NC(=O)COc2ccccc2C)sc2c1CCC(C)C2 (stereo not drawn)	1	0.057
CC(C)Oc1ccccc1C1CC(=O)Nc2cc3c(cc21)OCCO3 (stereo not drawn)	0.87	-1.1
Cc1ccc(-c2nc(-c3ccccn3)no2)cc1C	0.94	-0.57
COc1cccc(C(=O)Nc2c3c(nn2-c2ccc(Cl)cc2)CSC3)c1OC	1.2	4
CCCCCCc1ccc(-c2nc(Cc3ccccc3)no2)cc1	1.7	5.8
COc1ccc(CCNc2ncc3c(n2)CC(c2cccs2)CC3=O)cc1 (stereo not drawn)	1	1.6
O=C(Cn1ncc2c1-c1ccccc1OC2)NCCCN1CCOCC1	0.98	-0.21
Cc1cc2ccccc2c(=O)n1CC(=O)NCCN1CCOCC1	1.1	2.1
O=C(CN1CCN(Cc2ccccc2F)C1=O)NCCc1ccccc1	0.94	-0.84
Cc1ccc(Nc2c(-c3ccccc3)nc3ccccn23)cc1	0.98	-0.25
Cc1ccc2c(Cl)c(C(=O)NCc3ccncc3)sc2c1	1	0.66
CCOC(=O)c1ccc2nc(C)cc(Nc3ccccc3OCC)c2c1	0.96	-0.051
Cc1ccc(OCc2nc(-c3ccccn3)no2)c(C)c1	0.94	-0.073
COc1ccc(NC(=O)Cc2c(C(=O)O)[nH]c3ccccc23)cc1Cl	0.95	-1.1
N#Cc1ccc(C(=O)Nc2ccc3oc(-c4cccnc4)nc3c2)c(F)c1	0.98	-0.24
Cc1cc(=O)n2nc(N3CCCC(C(=O)NC4CC4)C3)sc2n1 (stereo not drawn)	1.1	1
Cc1cc(C)cc(NC(=O)CSc2oc(-c3cccs3)nc2S(=O)(=O)c2ccccc2)c1	0.89	-0.91
CC1(C)NC(=O)N(CC(O)COc2cccc(Cl)c2)C1=O (stereo not drawn)	1.2	0.5
O=C(CCn1c(=O)[nH]c2ccsc2c1=O)N1CCN(c2ccccn2)CC1	1.1	0.31
O=C(Cn1ncc2ccsc2c1=O)NCc1ccc(Cl)cc1	0.98	-0.54
Cc1ccc(CSc2nc3ccc(Cl)cc3[nH]2)cc1	1.1	4.7
COc1ccc(-c2nc(S(=O)(=O)c3ccccc3)c(N3CCCCC3)o2)cc1	0.93	-2.3
Cc1nc2ccc(S(=O)(=O)NC(CC(C)C)C(=O)NC3CCCCCCC3)cc2s1 (stereo not drawn)	1.1	2.4
COc1ccc2c(c1OC)C(=O)N(c1ccc(O)cc1)C2	0.99	-0.11
CCN(CCNC(=O)C1CCN(C(=O)c2cc3sccc3n2CC)CC1)c1ccccc1	0.51	-2.2
O=C(c1ccc2c(c1)N(Cc1ccccc1Cl)C(=O)c1ccccc1S2)N1CCCCC1	1.1	1.3
FC(F)(F)c1nnc2c3ccccc3c(NC3CC3)nn12	0.95	-0.88
O=C(NCC1COc2ccccc2O1)C1C2C=CC3(CN(Cc4ccccc4Cl)C(=O)C13)O2 (stereo not drawn)	1	1.4
NC(=O)C1CCN(C2CC(=O)N(c3ccc(C(=O)O)cc3)C2=O)CC1 (stereo not drawn)	0.93	-1.1
COc1cc(OC)cc(-c2nc3nc(C)c(CCC(=O)NCCc4ccccc4)c(C)n3n2)c1	1.7	2.9
O=C(NC1CCCC1)c1ccc(CNc2c(NC3CCCC3)c(=O)c2=O)cc1	0.91	-0.2
Cc1ccccc1CN1C(=O)c2ccccc2S(=O)c2ccc(C(=O)NCc3cccnc3)cc21 (stereo not drawn)	1	1.4
CCC(=O)N1CCc2cc(S(=O)(=O)NCCC(=O)Nc3ccc(F)c(F)c3)ccc21	1.1	2.9
CCCCN(CCCC)S(=O)(=O)c1ccc2[nH]c(=O)cc(C(=O)NCCC3=CCCCC3)c2c1	0.97	-0.28
O=C(NC1CCCC1)C1CC(c2ccc(F)cc2)=NO1 (stereo not drawn)	1	1.8
CC1CC(C)CN(CCCNC(=O)C2CCC(=O)N2C2CCCC2)C1 (stereo not drawn)	1	-0.092
O=C(NCCC1=CCCCC1)c1ccc2c(c1)N(Cc1ccccc1)CCS2	0.88	-0.17
O=C(CCCn1c(=O)[nH]c2cc(Cl)ccc2c1=O)N1CCN(c2ncccn2)CC1	0.99	-0.3
CC(O)Cc1nsc(NC(=O)c2ccc(C(C)(C)C)cc2)n1 (stereo not drawn)	1	0.16
COc1ccc(OC)c(NC(=O)c2cccc(N3C(=O)C4C5CCC(C5)C4C3=O)c2)c1 (stereo not drawn)	1.5	2.3
Cn1c(CSc2nc3ccccc3[nH]2)nc2ccccc21	0.98	-0.6
COc1cc(NC(=O)COc2ccccc2C(C)(C)C)c(OC)cc1Cl	0.9	-0.18
CCOC(=O)c1cnc2c(C)c(Cl)ccc2c1Nc1ccccc1	1.4	2.4
COC(=O)CNC(c1ccccc1Cl)c1cc(Br)ccc1NS(=O)(=O)c1ccc(C)cc1 (stereo not drawn)	0.99	-0.6
Cc1c(C(=O)Nc2ccc(F)c(Cl)c2)sc2ncn(Cc3cccc(F)c3)c(=O)c12	1.1	0.6
O=C(CCN1C(=O)COc2ccccc21)NCc1ccc(F)cc1Cl	0.95	-0.98
CCn1cc(C(=O)O)c(=O)c2cc(S(=O)(=O)N3CCCCCC3)ccc21	0.96	-0.41
CCOc1ccc(CCNC(=O)C2CCCN(c3nn4c(=O)cc(C)nc4s3)C2)cc1OCC (stereo not drawn)	1.3	2.2
CCCCN(C)C(=O)Cc1c(C(=O)O)[nH]c2ccc(Cl)cc12	1	1.3
O=C(NC1CCCC1)c1ccc(Cl)c(NC2=NC3CS(=O)(=O)CC3S2)c1 (stereo not drawn)	1.1	1.3
Cc1ccccc1OCc1nc(-c2ccc(NC(=O)c3ccncc3)cc2)no1	0.93	-1.6
Cc1ccc(Nc2cc(C)nc(N3CCOCC3)n2)c(C)c1	1	0.12
COc1cccc(CNC(=O)C2CCN(S(=O)(=O)c3cccc4nonc34)CC2)c1	1	0.049
O=C(NCCCc1ccccc1)[C@@H](c1ccccc1)N1Cc2ccccc2C1=O	1	0.87
O=C(c1ccccc1)C1CN(Cc2ccccc2)CCC1(O)c1ccccc1 (stereo not drawn)	1.1	2
COc1cccc(C(=O)N2CC(=O)Nc3ccc(F)cc3C2c2ccccc2)c1 (stereo not drawn)	0.99	-0.35
CCOc1ccc(C(=O)N2CC(=O)Nc3ccc(F)cc3C2c2ccccc2)cc1 (stereo not drawn)	0.91	-0.19
CCc1ccc(NC(=O)C2CCN(S(=O)(=O)c3c(C)noc3/C=C/c3cccs3)CC2)cc1	0.99	-0.55
CCOC(=O)Cc1csc(NC(=O)COc2ccc(OC)cc2)n1	1	1.3

(list continues)
SMILES	CBX7 inh	CBX7 inh z-score
O=C(CSc1nncc2ccccc12)c1ccccc1	0.98	-0.062
O=C(Nc1ccccc1C(F)(F)F)c1cc2n(n1)C(C(F)(F)F)CC(c1ccc3c(c1)OCO3)N2 (stereo not drawn)	1	0.0021
COc1ccc(Nc2nc3ccc(C)cc3nc2-n2nc(C)cc2C)cc1	1.5	19
CCCS(=O)(=O)N1CCCC(C(=O)NCCc2ccc(OC)c(OC)c2)C1 (stereo not drawn)	1	-0.26
Cc1ccc(CCN2CC(C(=O)NCCN3CCCC3)CC2=O)cc1 (stereo not drawn)	1	0.93
COC(CNC(=O)c1ccc2c(c1)N(Cc1ccccc1)C(=O)c1ccccc1S2(=O)=O)OC	1.1	1.1
COC(=O)C(C)Sc1nnc(Cc2cc(=O)[nH]c(=O)[nH]2)n1-c1ccc(Cl)cc1 (stereo not drawn)	1	0.04
COc1ccc(-c2nc(C(=O)NCc3ccc4c(c3)OCO4)c(C)o2)cc1	1	1.5
CCOc1ccc(NC(=O)C2CC2(c2ccc(CC)cc2)c2ccc(CC)cc2)cc1 (stereo not drawn)	0.98	-0.078
COc1ccc(OC2C(=O)N(c3cccc(Cl)c3)C2c2ccc3c(c2)OCO3)cc1 (stereo not drawn)	1.1	4
COc1ccc(N2C(=O)CC(Cc3ccccc3)C2=O)cc1 (stereo not drawn)	0.98	-0.2
COc1ccc(C2C(C(=O)NCc3ccc(F)cc3)c3ccccc3C(=O)N2C)cc1OC (stereo not drawn)	1.1	1.4
Cc1c(C(=O)NCc2ccccn2)sc2ncn(CC(=O)N3CCCCC3C)c(=O)c12 (stereo not drawn)	1	0.13
CCOC(=O)c1cnc2cc(-c3ccc(C(C)(C)C)cc3)nn2c1C	1.3	6.5
Cc1csc2ncc(C(=O)Nc3cc(C(F)(F)F)cc(C(F)(F)F)c3)c(=O)n12	1.1	1.9
COc1cc2c(cc1OC)C(C(=O)Nc1cnc3ccccc3c1)C1c3ccccc3CCN1C2=O (stereo not drawn)	0.95	-0.91
COc1ccc(OC)c(Nc2nc(-c3cccc(C)c3)nc3ccccc23)c1	2.1	24
O=C(CC1(O)C(=O)Nc2ccc(Cl)cc21)c1cccs1 (stereo not drawn)	1	1.2
Cc1ccc(C)c(N2CCN(C(=O)CC(C(=O)N3CCc4ccccc43)n3ccnc3)CC2)c1 (stereo not drawn)	0.76	-5.5
COc1ccc(C2=C(Cl)C=C(c3ccc(F)cc3)c3ccccc3O2)cc1OC	0.9	-2.2
c1ccc(CN2CCN(C3CCN(Cc4ccccn4)CC3)CC2)cc1	1	-0.0059
CN1CCN(c2cc(=O)n(-c3ccc(Cl)cc3)c(=O)[nH]2)CC1	1	0.16
CCOC(=O)c1cccc(NC(=O)CC2Oc3ccccc3NC2=O)c1 (stereo not drawn)	1.2	3.5
COc1ccc(NC(=O)C2OC3OC(C)(C)OC3C3OC(C)(C)OC23)cc1 (stereo not drawn)	1.1	0.87
Cc1ccc(N2C(=O)CC(N3CCN(Cc4ccc5c(c4)OCO5)CC3)C2=O)c(C)c1 (stereo not drawn)	1.1	1.8
CC1CCN(S(=O)(=O)c2ccc3ncn(CC(=O)Nc4ccc(F)cc4Cl)c(=O)c3c2)CC1	1.1	0.71
Clc1ccc(-c2nc3ncccn3c2Nc2ccc3c(c2)OCO3)cc1	1	1.9
COc1ccc(-c2nc(CN3CCC(C(=O)N4CCCC4)CC3)c(C)o2)cc1OC	1.1	1.6
CN(C)CCNC(=O)c1cc(-c2ccncc2)nc2ccccc12	1.1	1.5
Cc1ccc(C)c(CN2C(=O)C(C(C)C(=O)NCc3ccc(F)cc3)Sc3ccccc32)c1 (stereo not drawn)	1	-0.064
Cc1ccc(-c2nn(C)c(=O)c3ccccc23)cc1S(=O)(=O)NC1CCCCC1	1	0.12
CCN(CC)CCNC(=O)c1ccc2c(c1)N(Cc1ccc(F)cc1)C(=O)c1ccccc1S2=O (stereo not drawn)	1.1	2.1
Cc1ccc(CCNC(=O)C2CCN(Cc3nc(-c4ccccc4F)oc3C)CC2)cc1	1.1	0.87
COc1cc2c(C(=O)NCCCN3CCCC3)cn(CC(C)C)c(=O)c2cc1OC	1.1	0.87
COc1ccc2nc(Nc3nc4ccccc4c(=O)[nH]3)nc(C)c2c1	1.1	0.22
CCN(C)C(=O)Nc1ccc(Oc2cnc3cc(Cl)ccc3n2)c(Cl)c1	0.87	-2.7

Part of the list above in order of molecular weight, highest first.
SMILES	CBX7 inh	CBX7 inh z-score
CCN(CC)CCNC(=O)c1ccc2c(c1)N(Cc1ccc(F)cc1)C(=O)c1ccccc1S2=O (stereo not drawn)	1.1	2.1
COc1cc2c(cc1OC)C(C(=O)Nc1cnc3ccccc3c1)C1c3ccccc3CCN1C2=O (stereo not drawn)	0.95	-0.91
Cc1ccc(C)c(CN2C(=O)C(C(C)C(=O)NCc3ccc(F)cc3)Sc3ccccc32)c1 (stereo not drawn)	1	-0.064
Cc1ccc(C)c(N2CCN(C(=O)CC(C(=O)N3CCc4ccccc43)n3ccnc3)CC2)c1 (stereo not drawn)	0.76	-5.5
Cc1c(C(=O)NCc2ccccn2)sc2ncn(CC(=O)N3CCCCC3C)c(=O)c12 (stereo not drawn)	1	0.13
Cc1ccc(CCNC(=O)C2CCN(Cc3nc(-c4ccccc4F)oc3C)CC2)cc1	1.1	0.87
Cc1csc2ncc(C(=O)Nc3cc(C(F)(F)F)cc(C(F)(F)F)c3)c(=O)n12	1.1	1.9
COc1cc2c(C(=O)NCCCN3CCCC3)cn(CC(C)C)c(=O)c2cc1OC	1.1	0.87
COc1ccc(-c2nc(CN3CCC(C(=O)N4CCCC4)CC3)c(C)o2)cc1OC	1.1	1.6
Cc1ccc(-c2nn(C)c(=O)c3ccccc23)cc1S(=O)(=O)NC1CCCCC1	1	0.12
COc1ccc(C2=C(Cl)C=C(c3ccc(F)cc3)c3ccccc3O2)cc1OC	0.9	-2.2
CCN(C)C(=O)Nc1ccc(Oc2cnc3cc(Cl)ccc3n2)c(Cl)c1	0.87	-2.7
COc1ccc(NC(=O)C2OC3OC(C)(C)OC3C3OC(C)(C)OC23)cc1 (stereo not drawn)	1.1	0.87
COc1ccc(OC)c(Nc2nc(-c3cccc(C)c3)nc3ccccc23)c1	2.1	24
Clc1ccc(-c2nc3ncccn3c2Nc2ccc3c(c2)OCO3)cc1	1	1.9
c1ccc(CN2CCN(C3CCN(Cc4ccccn4)CC3)CC2)cc1	1	-0.0059
CCOC(=O)c1cnc2cc(-c3ccc(C(C)(C)C)cc3)nn2c1C	1.3	6.5
COc1ccc2nc(Nc3nc4ccccc4c(=O)[nH]3)nc(C)c2c1	1.1	0.22
CN1CCN(c2cc(=O)n(-c3ccc(Cl)cc3)c(=O)[nH]2)CC1	1	0.16
CN(C)CCNC(=O)c1cc(-c2ccncc2)nc2ccccc12	1.1	1.5
O=C(CC1(O)C(=O)Nc2ccc(Cl)cc21)c1cccs1 (stereo not drawn)	1	1.2

Remaining list, next part:
SMILES	CBX7 inh	CBX7 inh z-score
CC1(C)CC(=O)C2=C(C1)Nc1cc3c(cc1C2c1ccc(F)cc1)OCCO3 (stereo not drawn)	1	0.33
O=C(CCCN1CCN2CCCCC2C1)c1ccc(F)cc1 (stereo not drawn)	1.2	1.3
CCOc1ccccc1-c1cc(C(=O)Nc2ccc(S(N)(=O)=O)cc2)c2ccccc2n1	0.99	-0.22
COc1ccc(CNC(=O)Nc2cccs2)cc1OC	0.99	-0.52
Cc1cc(C)cc(NS(=O)(=O)c2cnc[nH]2)c1	1	0.059
CCc1ccc2nc(Nc3nc4c(c(=O)[nH]3)CCCC4)nc(C)c2c1	0.81	-2.5
Cc1ccccc1Cc1c(C)nc2nc(SCC(=O)NCCC(C)C)nn2c1C	0.99	-0.025
